# Mtb bLac sens: beta-lactam sensitization of Mtb H37Rv | M. tuberculosis H37Rv growth with meropenem, percent inhibition; hits of this screen are not shown here | inhibition, % at 25 µM | hit rate 0.27% among 330,000;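 active means about 74% or more and at least 40 points above the plate without the antibiotic, then above 30% in a dose series; inconclusive means first-round hits that could not be retested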;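 further: growth measured after seven days incubation then overnight dye step; 0% = bacteria only wells and 100% = bacteria with antibiotic; twin plates without the antibiotic show which effects depend on it; some results filed as inactive read as strong as hits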
# RecA intein inh: inhibitors of M. tuberculosis RecA intein splicing; inhibition, %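 (about 9 µM by stock and volumes)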; cell-free RecA intein splicing, fluorescence; hit rate 0.75% among 290,000; AID 2221; in the data active means inhibition above about 30%; inconclusive means no clear call, values can overlap the other calls;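 further: 0% = vehicle wells and 100% = reference inhibitor control wells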
# Target sequence (P9WHJ3 whole entry, looked up): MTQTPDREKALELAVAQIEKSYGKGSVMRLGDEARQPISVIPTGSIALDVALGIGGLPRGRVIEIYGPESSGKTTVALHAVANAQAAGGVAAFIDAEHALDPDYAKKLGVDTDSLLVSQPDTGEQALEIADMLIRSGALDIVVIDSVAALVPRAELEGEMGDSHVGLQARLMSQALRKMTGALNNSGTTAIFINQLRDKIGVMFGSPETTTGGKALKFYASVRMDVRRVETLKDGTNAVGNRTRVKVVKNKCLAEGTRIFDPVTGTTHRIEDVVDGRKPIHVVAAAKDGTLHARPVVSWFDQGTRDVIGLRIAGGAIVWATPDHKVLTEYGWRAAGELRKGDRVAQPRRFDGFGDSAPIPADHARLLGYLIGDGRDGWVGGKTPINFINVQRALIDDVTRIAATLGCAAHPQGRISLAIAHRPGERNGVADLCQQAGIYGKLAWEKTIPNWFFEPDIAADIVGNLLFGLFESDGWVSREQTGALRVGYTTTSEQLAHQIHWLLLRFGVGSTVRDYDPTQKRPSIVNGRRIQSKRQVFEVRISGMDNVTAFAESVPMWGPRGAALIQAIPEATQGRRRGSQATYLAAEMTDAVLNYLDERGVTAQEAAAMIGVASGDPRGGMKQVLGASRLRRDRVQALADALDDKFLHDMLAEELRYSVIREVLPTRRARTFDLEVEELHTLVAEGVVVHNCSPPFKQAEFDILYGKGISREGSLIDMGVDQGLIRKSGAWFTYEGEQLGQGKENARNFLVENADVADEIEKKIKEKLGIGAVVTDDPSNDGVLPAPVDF
# YopH PTP inh: YopH (Yersinia) phosphatase inhibition; fluorescence Ex485/Em525; inhibition, %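 (about 10 µM by stock and volumes)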; hit rate 0.16% among 140,000;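 active means inhibition of 50% or more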;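 further: controls were vehicle for no effect and minimum signal wells for full effect; inactives centre near -20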
# Arbovirus anti: antivirals against arbovirus infection; hit rate 0.37% among 200,000; AID 1251; inhibition, % at 10 µM; arbovirus infection cell-based antiviral screen;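 active means inhibition from about 30%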;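 further: bluetongue infection of BSR cells; cell survival read as ATP light after 72 h; 0% = infected wells without compound and 100% = uninfected wells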
# Mtb H37Rv: M. tuberculosis H37Rv growth inhibitors, H37Rv strain (AID 1626); M. tuberculosis H37Rv growth inhibition; higher % means a stronger effect; one-dose inhibition, % at 10 µM; IC50 in µM for titrated hits; hit rate 0.95% among 220,000;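 active means confirmed in a dose series; inconclusive means inhibition above 80% but not taken into the dose series; inactive means below 80% or under 30% at every dose of the series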;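 further: bacteria incubated seven days before Alamar blue readout; 0% = bacteria only wells and 100% = bacteria with antibiotic wells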
# Arbovirus anti repeat: second read-out of Arbovirus anti, no call of its own (marks repeat the call); inhibition, %; measured here: 10K subset replicate screen; many hits read low in the repeat;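 first of two repeat runs on a subset; 0% = infected and 100% = uninfected wells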
# The depositor's hits bear a star; ? = inconclusive; . = not tested or not shown. An excerpt (hit frequency here may not be typical).
SMILES,Mtb bLac sens,RecA intein inh,YopH PTP inh,Arbovirus anti,Mtb H37Rv,others
Cc1ccc(NC(=O)C(C)OC(=O)Cn2[nH]c(=O)c3ccccc3c2=O)cc1 (centres undefined),-6,-0.6,.,.,.,
CN(C)CCCN(C(=O)c1ccc(S(=O)(=O)N2CCc3ccccc3C2)cc1)c1nc2c(F)cccc2s1,-3,1.1,.,.,.,
O=c1cc[nH]c2ccc([N+](=O)[O-])cc12,-6,-3.4,.,3,-3%,
O=C(Nc1nnc(CC(=O)N2CCOCC2)s1)c1cccs1,0,-0.6,-12,0,-5%,
O=C(O)C(Cc1ccccc1)N1C(=O)/C(=C/C=C/c2ccco2)SC1=S (centres undefined),.,21,.,.,-13%,
CCN(c1ccccc1)S(=O)(=O)c1cc2c(cc1C)N(C)CCO2,?,2.5,.,.,.,
CCCCn1c(N)c(N(CCOC)C(=O)c2ccco2)c(=O)[nH]c1=O,-8,3.3,.,.,.,
CC(NC(=O)C1CCN(S(=O)(=O)N2CCC3(CC2)OCCO3)CC1)c1ccccc1 (centres undefined),-4,-0.5,.,-1,-1%,
C[C@@H]1CN(Cc2cn(C)nc2-c2cccc(Cl)c2)C[C@H](C)O1,-1,0.9,.,0,-7%,
COc1cc(NC(=O)NS(=O)(=O)c2ccc(C)cc2)cc(OC)c1,86,-1.9,-23,2,46%,
CCOc1ccc(/C(O)=C/C(=O)C(=O)Nc2ccc(S(=O)(=O)NC(C)=O)cc2)cc1,-2,4.9,-4,-9,-8%,
COc1ccc(/C=N/Nc2nc(-c3cccnc3)nc3ccccc23)c(OC)c1,0,-9.1,.,.,-4%,
C=CCOc1ccc(Br)cc1CNCC,-11,0.7,.,6,0%,
OC1CCN(Cc2ccc(OCc3ccccc3)cc2)CC1,0,-2.0,.,.,.,
CCn1c(=S)sc2c(=O)n(CC(=O)NCCCc3ccccc3)c(C)nc21,-6,0.3,.,.,.,
CCOc1ccc(C2C(C(=O)c3cccs3)=C(O)C(=O)N2Cc2cccnc2)cc1 (centres undefined),-2,1.5,.,1,-4%,
O=C(CCl)Nc1ccc(Sc2ccc(NC(=O)CCl)cc2)cc1,.,-1.7,.,.,-2%,
CCOC(=O)c1cc(CC)sc1NC(=O)c1cccc(N2C(=O)CCC2=O)c1,5,2.1,-15,11,2%,
COc1cccc(-c2c(C(=O)N/N=C/c3cccs3)nnn2-c2nonc2N)c1,-5,0.4,.,.,.,
CCOc1ccccc1N(CC(=O)NC(C)(C)C)C(=O)Cn1nnc(-c2ccc(C)o2)n1,0,1.7,-25,2,4%,

# Reprinted at random: 3 records from the list
SMILES,Mtb bLac sens,RecA intein inh,YopH PTP inh,Arbovirus anti,Mtb H37Rv,others
CCCCn1c(N)c(N(CCOC)C(=O)c2ccco2)c(=O)[nH]c1=O,-8,3.3,.,.,.,
O=C(Nc1nnc(CC(=O)N2CCOCC2)s1)c1cccs1,0,-0.6,-12,0,-5%,
CCn1c(=S)sc2c(=O)n(CC(=O)NCCCc3ccccc3)c(C)nc21,-6,0.3,.,.,.,

# (more compounds)
SMILES,Mtb bLac sens,RecA intein inh,YopH PTP inh,Arbovirus anti,Mtb H37Rv,others
O=c1c2[nH]c3ccc(Br)cc3c2ncn1Cc1ccncc1,-6,-1.9,.,.,4%,
O=C(NCCCn1ccnc1)C1CCCN(S(=O)(=O)c2cc(Cl)ccc2Cl)C1 (centres undefined),-16,-0.7,.,.,.,
Cc1cccc(N(CC(=O)NC2CCCC2)C(=O)CCC(=O)Nc2ccccn2)c1,-2,-0.8,.,.,.,
O=c1[nH]cnc2scc(-c3ccc(Br)cc3)c12,-8,0.1,.,-11,-11%,
Cc1cccc(NC(=O)/C=C/c2cccs2)n1,-2,1.0,-16,2,-10%,
CC(C)c1ccc(CNC(=O)C(=O)NCCCn2ccnc2)cc1,2,1.7,.,4,.,
CC1CCN(C(=O)CN2C(=O)COc3ccc(Cl)cc32)CC1,4,1.0,.,.,.,
COC(=O)c1ccc(Cn2cnc3ccccc3c2=O)cc1,1,.,-31,-2,-9%,
CCCCN1C2=NC(c3ccccc3)CN2c2ccccc21 (centres undefined),-4,2.6,.,.,.,
COc1ccccc1S(=O)(=O)c1ccccc1[N+](=O)[O-],4,-5.0,-16,2,5%,
O=C(NC1CCCCC1)C12CC3CC(C1)CC(n1cncn1)(C3)C2,-10,1.3,-39,3,1%,
COc1ccc(C(=O)NNc2ccccc2)cc1,95,-2.4,-3,-41,?,
COc1ccc(OC)c(S(=O)(=O)Nc2ccc3oc(C)c(C(C)=O)c3c2)c1,-1,-0.9,.,.,.,
CN(C)CCNC(=O)Cn1nc(C(F)F)cc1C1CC1,2,-0.3,45,4,-6%,
CCc1nc(SCC(=O)N2c3ccccc3CC2C)c2c(C)c(C)sc2n1 (centres undefined),10,3.2,-34,-8,63%,
CCC(C)(C(=O)NC1CCCC1)N(C(=O)c1cnccn1)c1ccccc1 (centres undefined),-1,5.9,-30,-2,.,
COC(=O)CN1C(=S)N(Cc2ccccc2)C(=O)C1CC(=O)Nc1ccc(OC)cc1 (centres undefined),-5,4.3,-10,-8,9%,
CC(C)(C)OC(=O)NCCCCCc1nnc(SCc2ccc(F)cc2)o1,92,3.6,.,.,61%,
Nc1n[nH]c(CCCO)n1,-9,5.8,-2,1,-2%,
COc1cc(C)ccc1OCCCOc1ccccc1Cl,27,2.9,-38,11,13%,
N#C/C(=C(/O)CSc1ccccn1)c1nc2ccccc2s1,-1,-2.8,.,6,4%,
Cc1ccc(N(CC(=O)Nc2cccc(C)c2)S(=O)(=O)c2cccc3nonc23)cc1,-8,5.3,-41,8,6%,
CC(Cc1ccc(O)c(O)c1)C(C)Cc1ccc(O)c(O)c1 (centres undefined),1,6.1,.,.,-4%,
COC(=O)c1ccc(OC)c(OC2CCCC2)c1,1,.,.,.,-18%,
CC(C)C(=O)c1cn(CC(=O)NCc2ccc3c(c2)OCO3)c2ccccc12,-5,-1.2,-20,-4,-2%,
CC1(C)CC(=O)C(C=NC2CCCCC2)=C(O)C1,-2,-2.5,-35,-3,-11%,Arbovirus anti repeat=4
O=c1cc(-c2c(O)c3ccccc3n(Cc3ccccc3)c2=O)[nH][nH]1,-2,4.1,.,7,-4%,
Cc1ccnc(NC(=O)c2ccc(S(=O)(=O)c3ccccc3)cc2)c1,-4,3.1,.,1,3%,
COC(=O)c1ccc(NC(=O)COc2ccc(C3C(C#N)=C(N)Oc4c3ccc3ccccc43)cc2OC)cc1 (centres undefined),1,3.9,2,1,18%,
CCN(CC)c1nc2c(s1)C(=O)NCCC2,-5,-1.8,-16,9,-10%,
COc1ccc(CCNC(=O)C2CCN(S(=O)(=O)N3CC(C)CC(C)C3)CC2)cc1OC (centres undefined),2,0.3,-38,6,-6%,
Cc1nc(-n2cc(F)c(=O)[nH]c2=O)c2nc(C)oc2n1,3,1.6,-43,9,1%,
O=[n+]1c2c(n([O-])c3cc(F)c(F)cc31)CCCC2,-7,-5.3,-10,3,8%,
COc1cc2ncnc(NCc3ccccc3F)c2cc1OC,1,0.2,.,.,.,
Cc1c(C(=O)N2CCC3(CC2)OCCO3)oc2ccc(S(=O)(=O)N3CCOCC3)cc12,-14,-7.0,-63,10,4%,Arbovirus anti repeat=-6
Cc1sc2ncn(CC(=O)NCC3COc4ccccc4O3)c(=O)c2c1S(=O)(=O)N1CCCCC1 (centres undefined),-3,-2.4,.,2,27%,
CCOc1ccc(NC(=O)CN(C)CC(=O)Nc2ccccc2C#N)cc1OCC,-9,-0.9,-43,-2,1%,
COc1cccc(-c2cc(C(=O)Nc3ccccc3SC)no2)c1,-10,-12,-27,-4,4%,
CCOC(=O)C1=C(COC(=O)CSc2ccc(Br)cc2)NC(=O)NC1C (centres undefined),-4,-0.6,.,.,.,
CCCn1c(N)c(Sc2ccc(C)cc2)c(=O)n(CCC)c1=O,-3,2.0,.,3,4%,
CNCCCCOc1ccccc1-c1ccccc1,-2,-0.9,-17,-15,4%,
CC(C)Cn1c(-c2ccncc2)n[nH]c1=S,-10,-3.4,.,1,2%,
Cc1ccc(/C=N/N2C(=S)SC(C)(C)C2N(O)C(=O)Nc2ccc([N+](=O)[O-])cc2)cc1 (centres undefined),-3,-2.8,-22,0,59%,
COc1cc(/C=N/N=C(N)N)ccc1OCc1ccccc1Cl,17,9.0,.,-29,?,
CCOc1ccc(S(=O)(=O)Oc2ccc3ccccc3c2)cc1,11,17,-15,-5,11%,
CCc1ccc(CNC(=O)C(=O)NCCc2ccc(OC)c(OC)c2)cc1,11,.,-26,.,.,
Cc1ccc(C)c(NC(=S)/C(=C(\[O-])c2ccc(Cl)s2)[n+]2ccccc2)c1,5,24,.,12,6%,
O=C(NCC1CCCCN1)c1cc(OCC(F)(F)F)ccc1OCC(F)(F)F (centres undefined),2,0.7,-39,-4,0%,
CCc1c(C(=O)OC)nnc2cc(C)nn12,?,-1.1,-9,6,1%,
OCCCNC(=S)Nc1ccc(Nc2ccccc2)cc1,-5,-4.0,.,-6,0%,
CC(=O)Nc1ccc(S(=O)(=O)NNC(=O)COc2cccc3ccccc23)cc1,6,1.9,-10,-11,2%,
CC(=O)NC1=NN(C(C)=O)C(C)(c2cccc([N+](=O)[O-])c2)S1 (centres undefined),-10,-2.7,.,2,2%,
O=C(Oc1ccc[nH]c1=O)c1cc([N+](=O)[O-])cc([N+](=O)[O-])c1,10,-6.2,.,.,-9%,
CC1CCCN(S(=O)(=O)c2ccc(NC(=O)CCN3C(=O)c4ccccc4C3=O)cc2)C1 (centres undefined),7,0.5,-8,-1,-5%,
CCCNC(=O)c1ccc(SCC(=O)N(CC)CC)c([N+](=O)[O-])c1,1,-15,.,-1,-8%,
CCOc1cc(-n2ncc(C#N)c2N)nc(SC)n1,11,-0.2,-48,-8,-5%,
CNC(=S)N1CCc2cc(OC)c(OC)cc2C1COc1ccc(OC)cc1 (centres undefined),-2,-0.1,.,-3,3%,
CCC(C)(C(=O)NC1CCCCC1)N(Cc1ccco1)C(=O)c1cnccn1 (centres undefined),-7,-1.2,12,9,-10%,
O=C(C1CC1(c1ccccc1)c1ccccc1)N1CCOCC1 (centres undefined),-8,2.2,11,11,1%,
CCN(CC)CCN(C(=O)CCS(=O)(=O)c1ccccc1)c1nc2c(C)cc(C)cc2s1,-13,0.8,.,.,.,

# A draw from above in order of heavy-atom count, highest first:
SMILES,Mtb bLac sens,RecA intein inh,YopH PTP inh,Arbovirus anti,Mtb H37Rv,others
CC1CCCN(S(=O)(=O)c2ccc(NC(=O)CCN3C(=O)c4ccccc4C3=O)cc2)C1 (centres undefined),7,0.5,-8,-1,-5%,
CNC(=S)N1CCc2cc(OC)c(OC)cc2C1COc1ccc(OC)cc1 (centres undefined),-2,-0.1,.,-3,3%,
CCc1ccc(CNC(=O)C(=O)NCCc2ccc(OC)c(OC)c2)cc1,11,.,-26,.,.,
Cc1ccc(C)c(NC(=S)/C(=C(\[O-])c2ccc(Cl)s2)[n+]2ccccc2)c1,5,24,.,12,6%,
CCOc1ccc(S(=O)(=O)Oc2ccc3ccccc3c2)cc1,11,17,-15,-5,11%,
CCOc1cc(-n2ncc(C#N)c2N)nc(SC)n1,11,-0.2,-48,-8,-5%,
CCc1c(C(=O)OC)nnc2cc(C)nn12,?,-1.1,-9,6,1%,

# Additional compounds follow:
SMILES,Mtb bLac sens,RecA intein inh,YopH PTP inh,Arbovirus anti,Mtb H37Rv,others
CN1c2ccccc2C(O)=C(C(=S)Nc2ccc(Cl)cc2)S1(=O)=O,59,5.9,-41,26,-10%,
COc1ccc(OC)c(NC(=O)[C@@]2(CC(=O)O)CC(/C=C/c3ccccc3)=NO2)c1,0,12,.,.,.,
O=[N+]([O-])c1ccc(Cn2cc(-c3cccc(C(F)(F)F)c3)nn2)cc1,8,3.6,.,.,.,
Cc1ccc(CNc2ncc(-c3ccc4c(c3)OCO4)n2C)cc1,11,-2.9,8,-10,-15%,
CCC(C(=O)NCc1ccco1)n1nc(C)n2c(cc3occc32)c1=O (centres undefined),0,3.4,.,.,.,
COc1ccc(C2CC(=O)N(C)c3ccccc3S2)cc1OC (centres undefined),0,.,.,-10,3%,
C=CCOc1cccc(C2/C(=C(\O)c3ccc(F)cc3)C(=O)C(=O)N2CCN(C)C)c1 (centres undefined),7,-0.3,-11,9,-14%,
CCC(c1nnnn1CCc1ccccc1)N(Cc1ccco1)Cc1cc2cccc(C)c2[nH]c1=O (centres undefined),-5,10,-44,-19,20%,
CC(C)[C@H]1COC(NC2=N[C@@H](C(C)C)CO2)=N1,1,0.7,.,.,.,
CCC(CC)C(=O)NCCCCc1ccccc1,2,0.9,-15,0,6%,
Cn1c(SCC(=O)NNC(=S)Nc2ccccc2)nnc1-c1ccncc1,-1,1.4,.,.,7%,
O=C(CCN1C(=O)C2C3C=CC(C3)C2C1=O)Nc1ccccn1 (centres undefined),-1,-0.4,-11,2,-6%,

# Screens (PubChem BioAssay)
